HSD17B inhib: qHTS Assay for Inhibitors of HSD17B4, hydroxysteroid (17-beta) dehydrogenase 4; 3-hydroxyacyl-CoA dehydrogenase type-2 (Homo sapiens), Q99714; recombinant HSD17B10, NADH fluorescence kinetic; many of its hits are not listed in these tables; Potency, µM (top dose mostly 57.1 µM), for the others: top-dose activity change, negative = inhibition, actives largely listed as inhibitors; 75,000 compounds, 7.6% hits; active = well fitted inhibition curve with a large enough effect; inconclusive = small, poorly fitted or top-dose-only effect; inactive = no such curve, though single readings can be large or run the other way;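 also: the protocol describes HADH2 (HSD17B10) and not the HSD17B4 of the title; nearly all actives have a fitted effect of over 70% in size; most hits overshoot -100% by far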
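Activity followed as NADH fluorescence increase (ex 360, em 450 nm) every 30 seconds for 4 min, using final 90 uM beta-hydroxybutyryl CoA and 1 mM NAD+. Recombinant His-tagged enzyme, 20 nM, pH 9.0 Tris buffer, 15 min compound preincubation.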
Numbers without * were called inactive; u = inconclusive; [ ] = dose if it differs, or a comment. % is scaled to controls: 0 for no effect and ±100 for the full control effect; potency is read from the fitted curve at half-maximal effect. These rows are one share of the data; count on the stated rates, not on these rows.

SMILES	HSD17B inhib
O=C(Nc1ccccc1C(=O)N1CCOCC1)C1COc2ccccc2O1 (stereo unspecified)	12.6%
CCn1c(=O)cc(SCC(=O)Nc2ccccc2N2CCN(C)CC2)c2ccccc21	7.8%
O=C(CSc1nnc2c3cc(F)ccc3nc(-c3ccccc3)n12)N1CCOCC1	7.3%
CCOC(=O)N1CCC(NC(=O)CC(NS(=O)(=O)c2ccc(C)cc2)c2ccco2)CC1 (stereo unspecified)	7.6%
CCOC(=O)c1cccc(NC(=O)C2CCN(S(=O)(=O)c3cnc[nH]3)CC2)c1	-1.9%
CC1(C)NC(=O)N(CC(O)COc2ccccc2C(=O)N2CCCCC2)C1=O (stereo unspecified)	13.8%
CCOc1ccc(NC(=O)COC(=O)Cn2cnnn2)cc1OCC	2.4%
CCOC(=O)c1ccc(NC(=O)Nc2cc(C)on2)cc1	0.7%
CC(=O)Nc1cccc(N2CCCC2=O)c1	6.8%
CC(C)(C)c1cc(NC(=O)c2cccnc2)no1	-2.5%
Cc1[nH]c(=O)[nH]c(=O)c1CSc1nnc(CCCCCNC(=O)OC(C)(C)C)o1	20.7%
O=C1C=C(NCc2ccco2)C2(CCCCC2)O1	-0.9%
CC(C)(C)c1ccc(OCC(O)CS(=O)(=O)c2ccccn2)cc1 (stereo unspecified)	-3.1%
Cc1cc(C(=O)CSc2nc3ccccc3[nH]2)c(C)n1C	-5.1%
O=C(CCc1nc2ccccc2[nH]1)N1CCc2ccccc2C1	-0.7%
COC(=O)CCC(=O)COc1ccccc1C#N	29.6%
COc1ccccc1OCCCCNC(C)(C)C	2.5%
CCOc1cc(C)c(S(=O)(=O)NC2CCCCC2)cc1C	-2.5%
COc1ccc2c(c1)CCc1c(C(=O)NCc3ccco3)noc1-2	3.3%
Cc1cc(C)c2cc(CN(CCN3CCCC3)C(=O)Nc3ccc(F)cc3)c(=O)[nH]c2c1	4.1%
Cc1cc2n(n1)C(c1ccc3c(c1)OCO3)Nc1c(C)cccc1-2 (stereo unspecified)	31.6µM*
COc1ccc(-n2c(Cc3cc(=O)[nH]c(=O)[nH]3)nnc2SCC(=O)Nc2ccccc2)cc1	13.0%
C=CCn1c(=O)/c(=C/c2ccc(C)o2)s/c1=C(/C#N)C(=O)c1ccccc1	20µM*
C=CCNC(=O)C1CC(=O)N(c2ccc(OCC(=O)Nc3ccccc3)cc2)C1 (stereo unspecified)	u
COCc1cc(C)nc(NC2CCCCC2)c1C#N	25.1µM*
COc1ccc(NS(=O)(=O)Cc2ccccc2Cl)cn1	-4.6%
O=C(CSc1nc2ccccc2c(=O)n1CCCC(=O)N1CCCC1)NCc1ccco1	-7.2%
COc1ccc(NC(=O)C23CCC(C)(C(=O)C2)C3(C)C)cc1 (stereo unspecified)	4.2%
CC(=O)N1CCc2cc(S(=O)(=O)NCCC(=O)NC3CCCc4ccccc43)ccc21 (stereo unspecified)	7.5%
CC1CC(C)CN(C(=O)Cn2c(=O)n(CCCCC(=O)NC3CCCC3)c(=O)c3ccccc32)C1 (stereo unspecified)	5.4%

Among those listed so far, 3 have a cyano group.
SMILES	HSD17B inhib
COC(=O)CCC(=O)COc1ccccc1C#N	29.6%
C=CCn1c(=O)/c(=C/c2ccc(C)o2)s/c1=C(/C#N)C(=O)c1ccccc1	20µM*
COCc1cc(C)nc(NC2CCCCC2)c1C#N	25.1µM*

Following part.
SMILES	HSD17B inhib
O=C(Nc1ccc(N2CCN(Cc3ccccc3)CC2)cc1)c1ncn[nH]1	-4.1%
Cc1ccc(-c2csc3nnc(SCC(=O)N4CCN(Cc5ccccc5)CC4)n23)cc1	-4.1%
CC1(C(=O)NC2CCCC2)CCC(=O)N1Cc1ccccc1 (stereo unspecified)	5.5%
O=C(O)CCn1cnc2ccccc2c1=O	-6.2%
O=C(O)C1C(c2ccccc2)C(C(=O)OCc2ccco2)C1c1ccccc1 (stereo unspecified)	-28.4%
CS(=O)(=O)N(CC(=O)NCCC1=CCCCC1)C1CCCCC1	8.3%
CCOc1ccc(C(=O)NCc2ccncc2)cc1OCC	5.3%
Cc1cc(C(=O)OCC(=O)c2ccc(Br)s2)no1	-5.4%
O=C(CC1OC(=O)c2ccccc21)Nc1ccccc1N1CCOCC1 (stereo unspecified)	2.6%
Cc1ccccc1CN1C(=O)CSc2ccc(C(=O)N3CCOCC3)cc21	4.4%
O[C@@H](c1cc(-c2ccc(Cl)cc2)nc2ccccc12)[C@@H]1CCCCN1	5.0%[11.4 µM]
CC(CC(=O)Nc1ccncc1)c1ccccc1 (stereo unspecified)	-1.3%
COc1ccc(CCNC(=O)CCN2C(=O)C3CC=CCC3C2=O)cc1OC (stereo unspecified)	-5.3%
CCCNc1nc2c(c(=O)n(C)c(=O)n2C)n1Cc1cccc(C)c1	8.0%
CCSc1nnc(Cn2c(=O)sc3ccccc32)n1-c1ccccc1C	-21.0%
O=C(OCCN1C(=O)c2ccccc2C1=O)c1cccs1	16.8%
CC(C)N(Cc1ccccc1)S(=O)(=O)c1n[nH]c(C(C)(C)C)n1	4.3%[11.4 µM]
CC(Sc1ccc(Br)cc1)C(N)=O (stereo unspecified)	1.1%
Fc1cccc(CN2CCN(c3ncccn3)CC2)c1	130.1%[activator]
COc1ccc(Cc2nnc(NC(=O)Cc3cccs3)s2)cc1	u
Cc1ccc(-c2nc3ccccc3c(=O)n2CCCN2CCOCC2)cc1	-1.0%
CN(C)CCNC(=O)C(C(=O)c1ccccc1)n1ccccc1=O (stereo unspecified)	10.8%
CCC(=O)N1CCCc2cc(S(=O)(=O)NCc3cccs3)ccc21	3.8%
c1ccc(C(CCN2CC3CCC(CC3)C2)c2ccccc2)cc1	-4.4%[11.4 µM]
CCCOc1ccc2c3c(c(=O)oc2c1)CCCC3	31.6µM*
Cc1cc(C)nc(N2CCCC(C(=O)Nc3cc(F)ccc3C)C2)n1 (stereo unspecified)	u
O=C(NCc1ccc(Cl)cc1)c1cc(-c2cccs2)on1	1.5%
C=CCOc1c(Cl)cc(/C=N/O)cc1OC	90.3%[activator]
CC(C)N(Cc1nc(-c2ccccc2)no1)C(=O)C(C)(C)C	-13.6%
C/C(=C1/SC(N2CCOCC2)=NC1=O)c1ccc(Br)cc1	1.4%
Cc1noc(C)c1-c1nc(NC2CCNCC2)c2ccccc2n1	-5.4%
Cc1c(S(=O)(=O)N2CCN(c3cccc(C(F)(F)F)c3)CC2)c(=O)n(C)c(=O)n1C	14.7%
O=C(Nc1ccccc1)c1ccc(S(=O)(=O)NCC2CCCO2)cc1 (stereo unspecified)	8.0%
CSc1oc(-c2ccccc2)nc1C(N)=O	u
O=S(=O)(c1ccccc1)c1nc(-c2ccco2)oc1NCCCn1ccnc1	4.0%
CCCc1cc(C(=O)Nc2ccc(C(C)=O)cc2)no1	15.3%
O=C(Nc1cccc(C(F)(F)F)c1)N1CCC(c2nc(-c3ccc(F)cc3)no2)CC1	2.0%
COCCn1c(C(=O)N2CCCC2)cc2c1C[C@H]1CN(C(=O)c3ccccc3)[C@@](Cc3ccc(F)cc3)(C(=O)OC)[C@@H]21	-5.1%
CC(=O)NCCn1c(SCC(=O)NCCC2=CCCCC2)nc2ccccc2c1=O	1.7%
O=C(Cc1ccc(Br)cc1)N1CCN(c2ccccc2)CC1	0.0%
O=S(=O)(NCCc1cn2ccccc2n1)c1ccc2c(c1)OCCO2	u
Cn1cc(S(=O)(=O)NCc2cccs2)c(=O)n(C)c1=O	8.7%
CC(C)(C)C(=O)/C(C#N)=c1\s/c(=C\c2ccncc2)c(=O)n1CCCN1CCOCC1	-0.2%
O=C(c1c[nH]c(=O)n(-c2ccccc2)c1=O)N1CCc2ccccc21	-4.5%
FC(F)Sc1ccc(Nc2ncnc3nc[nH]c23)cc1	-5.8%

Structural class, those above containing a CF3 group (2)
SMILES	HSD17B inhib
Cc1c(S(=O)(=O)N2CCN(c3cccc(C(F)(F)F)c3)CC2)c(=O)n(C)c(=O)n1C	14.7%
O=C(Nc1cccc(C(F)(F)F)c1)N1CCC(c2nc(-c3ccc(F)cc3)no2)CC1	2.0%

Reprinted at random: 7 records from the list
SMILES	HSD17B inhib
Cn1cc(S(=O)(=O)NCc2cccs2)c(=O)n(C)c1=O	8.7%
O=C(c1c[nH]c(=O)n(-c2ccccc2)c1=O)N1CCc2ccccc21	-4.5%
CC(C)(C)C(=O)/C(C#N)=c1\s/c(=C\c2ccncc2)c(=O)n1CCCN1CCOCC1	-0.2%
CC(=O)NCCn1c(SCC(=O)NCCC2=CCCCC2)nc2ccccc2c1=O	1.7%
O=C(Nc1cccc(C(F)(F)F)c1)N1CCC(c2nc(-c3ccc(F)cc3)no2)CC1	2.0%
O=S(=O)(NCCc1cn2ccccc2n1)c1ccc2c(c1)OCCO2	u
O=S(=O)(c1ccccc1)c1nc(-c2ccco2)oc1NCCCn1ccnc1	4.0%

Later entries:
SMILES	HSD17B inhib
CCn1c(N2CCN(S(=O)(=O)c3ccccc3C(F)(F)F)CC2)nc2ccccc21	-20.5%
CCc1nnc(NC(=O)C2CCCN2S(=O)(=O)c2ccccc2)s1 (stereo unspecified)	1.3%
CCCS(=O)(=O)N1CCCC(C(=O)NCCN(CC)c2ccccc2)C1 (stereo unspecified)	-1.8%
O=C(CN1CCOc2ccccc21)NC1CCN(Cc2ccccc2)CC1	2.5%
Cc1cc(C)n(C(=O)c2ccc(NC(=O)C3CC3)cc2)n1	-19.1%
O=C1CN(C(=O)CSc2nnc(-c3ccccc3)n2Cc2ccc3c(c2)OCO3)c2ccccc2N1	-4.1%
Cc1occc1C(=O)N1CCN(S(C)(=O)=O)CC1	-6.2%
CCOC(=O)c1c(N)sc2c(NC(C)=O)cccc12	1.0%
COC(=O)[C@@H]1C[C@H]2CC[C@H](O)C[C@H]2N1Cc1ccc(C)s1	7.9%
CCSC1=C(C#N)C(c2ccccc2Cl)CC(=O)N1 (stereo unspecified)	-0.6%
O=S(=O)(Nc1nccs1)c1cc(Cl)ccc1Cl	u
NCCSc1nc2ccccc2s1	-0.7%[11.4 µM]
Cc1ccc(S(=O)(=O)C(C#N)c2nc3ccccc3nc2N2CCCCC2)cc1 (stereo unspecified)	8.4%
CS(=O)(=O)Nc1ccccc1C(=O)NC1CC2CCC1C2 (stereo unspecified)	25.1µM*
CCCCS(=O)(=O)/C=C\C=C/S(=O)(=O)CCCC	-24.9%
O=S(=O)(Nc1ncccc1O)c1ccc(Cl)cc1	1.6%
CCn1c(C)csc1=NC(=O)c1ccccc1	u
O=C(NCc1ccco1)C(c1ccccc1)N(CC1CCCO1)C(=O)Cn1nnc2ccccc21 (stereo unspecified)	5.0%
COc1ccc(CCNc2c(C)c(C)nc3ncnn23)cc1	-8.9%
CC(c1ccccc1)n1c(NCCCn2ccnc2)nc2c1c(=O)[nH]c(=O)n2C (stereo unspecified)	4.2%
CN(C(=O)C1CCOC1)c1nnc(-c2cnccn2)s1 (stereo unspecified)	25.1µM*
COc1cc2cc(C(c3nnnn3C3CCCCC3)N(C)C3CCCCC3)c(=O)[nH]c2cc1OC (stereo unspecified)	-28.8%
CSc1nnc2n(C)c3c(c(=O)n12)C1(CCCC1)Cc1ccccc1-3	31.6µM*
FC(F)(F)c1cc(NC(=S)N2c3ccccc3-n3cccc3[C@H]2c2cccnc2)cc(C(F)(F)F)c1	u
O=C(NCc1ccc(Cl)cc1Cl)c1ccccn1	-2.6%
COc1ccccc1NS(=O)(=O)CC12CCC(CC1=O)C2(C)C (stereo unspecified)	2.0%
CCOC(=O)c1c(NC(=O)C2CCCN2S(=O)(=O)c2cccc3nsnc23)sc(C)c1C (stereo unspecified)	1.6%
Cc1noc(C)c1COC(=O)c1cc(C)n(-c2ccccc2)c1C	1.6%
Cn1c(=O)c(C(=O)COC(=O)c2cc(C(F)(F)F)nc3c(C(F)(F)F)cccc23)c(N)n(Cc2ccccc2)c1=O	20.4%
COc1ccc(NC(=O)c2ccccc2NC(=O)C2CCCO2)cc1 (stereo unspecified)	3.2%
COc1ccc(NC(=O)C2C3CCC(C3)C2C(=O)O)cc1OC (stereo unspecified)	-9.0%
c1ccc(Cn2nnnc2CN2CCN(c3ncccn3)CC2)cc1	3.2%
Cc1cc(-c2ccccc2)n(-c2ccc(C(=O)N3CCN(c4ncccn4)CC3)cc2)n1	-12.0%
COCc1[nH]nc2c1C(c1cc(OC)c(O)c(OC)c1)C(C#N)=C(N)O2 (stereo unspecified)	1.6%
CC1CCCC(NS(=O)(=O)c2ccc3c(c2)OCCO3)C1C (stereo unspecified)	-3.7%
CN1C(=O)Cn2c1nc1ccccc12	6.4%
NC(=O)C1(N2CCCCC2)CCN(C(=O)CSc2nc(C(F)(F)F)cc(=O)[nH]2)CC1	-2.6%
Nc1c(C(=O)Nc2ccc(F)cc2)sc2nc(-c3ccco3)ccc12	8.4%
CCCCOC(=O)Nc1cccc(C(C)=O)c1	6.4%
COc1ccc2c(c1)cc(C)c1nnc(SCC(=O)N3CCN(C(=O)c4ccco4)CC3)n12	-0.3%
CS(=O)(=O)N(CC(=O)Nc1cccc(F)c1)Cc1ccccc1	2.7%
O=C(Nc1cccc(Cn2cccn2)c1)c1cc2c(s1)CCCC2	-13.2%
Cc1ccc(Br)cc1	2.4%
Cc1cc(NC(=O)CSc2nc3c(c(-c4cccnc4)c2C#N)CCC3)no1	25.1µM*
CCCCCCN(C(=O)CCCCCN1C(=O)NC(C2CC2)C(C(=O)OCc2ccccc2)=C1C)C(C(=O)NCCCC)c1ccc(OCC(=O)OC)c(C(=O)OC)c1 (stereo unspecified)	-11.1%
CN(C)CCNC(=O)c1ccc(CS(=O)(=O)c2c(Cl)cccc2Cl)o1	3.0%
COc1ccc(CCNC(=O)c2c(-c3ccccc3)noc2C)cc1OC	7.5%

Screening data from PubChem BioAssay.
